gsp antag = gsp mutant antagonism | gsp-mutant cells, cAMP HTRF, 30 min; control for the full effect not named in the record | Potency, µM (top dose mostly 76.9 µM), for the others: top-dose activity change, negative = inhibition, hits mostly inhibitors | hit rate 0.4% among 340,000; active = falling curve of any shape with a large fitted effect; inconclusive = falling curve, mostly with a smaller effect; inactive = flat or rising curve; cell line not stated here;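 also: intracellular cAMP measured with PDE inhibitor Ro 20-1724 present during compound exposure; potency is read from the fitted curve at half-maximal effect; % is scaled to controls: 0 for no effect and ±100 for the full control effect; nearly all actives have a fitted effect of over 65% in size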
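Measurement of cellular cAMP by homogeneous time-resolved fluorescence following a 30 min compound exposure at 37C. The PDE inhibitor […] was present throughout; the assay buffer was DPBS with 0.05% BSA and 0.005% Tween 20.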
gsp ag = gsp mutant agonism | hit rate 0.13% among 340,000 | Potency, µM (series often up to 76.9 µM), for inactives: at the highest dose activation (cAMP increase), usual class: activators | AID 624287 | gsp mutant cells, cAMP HTRF, 30 min; control for the full effect not named in the record; active = well fitted activation curve with a large enough effect; inconclusive = small, poorly fitted or top-dose-only effect, or another doubt; inactive = no such curve, though single readings can be large or run the other way; cell line not stated here;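 also: phosphodiesterase inhibitor Ro 20-1724 added with compounds to block cAMP breakdown; potency is read from the fitted curve at half-maximal effect; nearly all actives have a fitted effect of over 60% in size; about a fifth of the inactives were tested at one dose only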
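Cells in DMEM/10% FBS with G418 were pretreated with compounds in DMSO plus […] (300 uM stock) for 30 min at 37C. cAMP was measured by HTRF (cAMP-d2 plus anti-cAMP antibody-K) after 30 min at room temperature.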
Sfp inh = blocks B. subtilis Sfp PPTase activity; Potency, µM, inactives show max response, negative = inhibition, most hits filed as inhibitors; hit rate 3.5% among 310,000; Biochemical Sfp PPTase activity, qHTS; AID 1490; active = well fitted inhibition curve with a large enough effect; inconclusive = small, poorly fitted or top-dose-only effect, or another doubt; inactive = no such curve, though single readings can be large or run the other way;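 also: the enzyme is Sfp with the accession as filed and its product quenches rhodamine fluorescence; potency is read from the fitted curve at half-maximal effect; 0% = enzyme reaction without inhibitor and -100% = no enzyme wells; top concentration of the series not given in the record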
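Sfp 15 nM + cpd, 15 min RT; start w/ rhodamine-CoA 5 uM, BHQ-2-YbbR 12.5 uM (final); 50 mM Hepes pH 7.6, 10 mM MgCl2, 0.01% NP-40, 0.01% BSA; read 525/598 nm at 0 and 30 min.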
Menin-MLL FL inh = inhibitors of human menin-MLL interaction, wild-type MLL peptide | Fluorescence polarization, fluorescein-MLL peptide displacement from menin | FP activity change, % at 61.4 µM | 290,000 tested, under 10 active | AID 1766; inconclusive = falling polarisation curve, or a change in total fluorescence; inactive = total fluorescence flat and polarisation flat or rising; no compound was filed as active; the % refers to the polarisation; negative = inhibition;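 also: % of control where 0% means no effect; inhibitors lower the polarisation; unlabelled MLL peptide was the positive control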
PINK1 expr mod = PINK1 expression modulation | hit rate 0.2% among 410,000 | Potency, µM (titrated, usually from 76.6 µM), for the others: at the highest dose activation (PINK1 increase), most hits filed as activators | PINK1 immunofluorescence, high-content cytometry, 24 h; active = well fitted activation curve with a large enough effect; inconclusive = small, poorly fitted or top-dose-only effect; inactive = flat fitted curve, though single readings scatter; cell line not stated here;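 also: potency is read from the fitted curve at half-maximal effect; % of control where 0% means no effect; nearly all actives have a fitted effect of over 65% in size; a mitochondrial uncoupler was the plate control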
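A stable cell line was treated with compounds at 5 concentrations for 24 hours, with CCCP as control. PINK1 levels and mitochondrial localization were measured by immunofluorescence with mitochondrial, cell and nuclear markers after fixation, read by laser-scanning cytometry.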
ClpP mod = qHTS Assay for Activators of ClpP. ATP-dependent Clp protease proteolytic subunit (Bacillus subtilis (strain 168)), P80244. purified B. subtilis ClpP, FRET peptide cleavage, 20 min. Potency, µM (doses to about 57.5 µM), inactives show top-dose activity change, negative = active. hit rate 1.9% among 340,000; active = well fitted falling curve with a large enough effect; inconclusive = small, poorly fitted or top-dose-only effect; inactive = no such curve, though single readings can be large or run the other way; also: potency is read from the fitted curve at half-maximal effect; the source files actives as falling curves though it sought activators and does not explain the sign; nearly all actives have a fitted effect of over 65% in size; many hits overshoot -100%
Target sequence (P80244 whole entry, looked up): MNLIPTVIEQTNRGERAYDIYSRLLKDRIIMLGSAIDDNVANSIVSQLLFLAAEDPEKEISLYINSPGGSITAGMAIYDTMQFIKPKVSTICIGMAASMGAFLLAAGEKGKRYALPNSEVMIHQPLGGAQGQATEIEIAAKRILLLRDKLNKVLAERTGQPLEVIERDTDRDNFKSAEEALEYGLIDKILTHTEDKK
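ClpP 10 microg/mL final, pH 8 Tris/KCl buffer with BSA, glycerol, Tween-20; compound pinned in; FRET-FV substrate; RT 20 min; Ex320/Em430; ΔFRET vs ADEP 5.8 microM, DMSO, no enzyme.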
D2 agonist = activates the human D2 dopamine receptor; P14416; DiscoveRx PathHunter D2 beta-arrestin, luminescence, 90 min; 100% = 57 uM dopamine signal; activation, % (concentration not given with the values); hit rate 0.084% among 360,000; in the data active = activation above about 40%; inconclusive = about 15% to 40%; inactive = below about 15%; also: compound concentration not given in the record; the text of the record calls up to 30% inactive
Target sequence (P14416 whole entry, looked up): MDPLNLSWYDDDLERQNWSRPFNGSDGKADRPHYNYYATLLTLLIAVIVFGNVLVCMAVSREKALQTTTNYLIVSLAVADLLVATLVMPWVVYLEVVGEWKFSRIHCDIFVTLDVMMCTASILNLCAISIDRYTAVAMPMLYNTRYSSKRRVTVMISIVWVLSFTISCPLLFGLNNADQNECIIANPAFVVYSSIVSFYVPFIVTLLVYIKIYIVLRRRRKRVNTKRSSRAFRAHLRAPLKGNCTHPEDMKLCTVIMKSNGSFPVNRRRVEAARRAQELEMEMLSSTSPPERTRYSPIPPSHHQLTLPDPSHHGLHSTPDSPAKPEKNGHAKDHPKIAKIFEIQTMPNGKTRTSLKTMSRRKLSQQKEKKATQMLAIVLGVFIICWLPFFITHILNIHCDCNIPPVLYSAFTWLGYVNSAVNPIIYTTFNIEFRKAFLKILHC
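DiscoveRx PathHunter D2 beta-arrestin cells (2,100/well) attached overnight, then compound-stimulated 90 min at 37 C in HBSS/10 mM HEPES/0.1% Tween-20 buffer; beta-galactosidase complementation read by luminescence after 1 h at ambient temperature. Dopamine 57 uM final (EC100) as control.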
The depositor's hits bear a star; ? = inconclusive; / = no result given; [ ] = remark or other dose.

SMILES	gsp antag	gsp ag	Sfp inh	Menin-MLL FL inh	PINK1 expr mod	ClpP mod	D2 agonist
O=C(CCS(=O)(=O)c1ccccc1)Nc1cccc2c1C(=O)NC2=O	-7%	-2%[15.4 µM]	-1%	1.5	13%	0.4%	1.6
O=C(c1ccc2nc(Cc3cccc(Cl)c3)oc2c1)N1CCC[C@H]1CO	-3%	?	5%	/	0.3%	-2.6%	1.2
Cc1ccc(Nc2oc(C)nc2C#N)cc1	-3%	-8%	2%	2.5	/	-0.3%	0.4
COCCNC(=O)C1(C)CCN(C(=O)c2cc(-c3ccccc3)cs2)C1 (stereo unspecified)	/	/	/	/	1.4%	-1.2%	3.9
CC1=NN(C(=O)Cc2ccccc2)C(O)(c2cccnc2)C1 (stereo unspecified)	13%	8%	1%	2.7	3.2%[38.3 µM]	1.9%	-1.6
CC(=O)c1cccc(NC(=O)C(NC(C)C)c2ccccc2)c1 (stereo unspecified)	10%	-19%[15.4 µM]	2%	0.9	-2.4%	-0.4%	-3.8
CCOC(=O)CNC(=O)/C=C/c1ccc2c(c1)OCO2	-4%	-2%[15.4 µM]	13%	-1.3	-1.2%	/	3.1
N#Cc1ccc(OCC(O)CN2CCN(CC(O)COc3ccc(C#N)cc3)CC2)cc1 (stereo unspecified)	/	-1%[15.4 µM]	6%	3.0	1.1%	/	-4.0
Cc1c(CC(=O)O)c(=O)oc2cc3c(cc12)CCC(C)(C)O3	4%	?	27%	5.2	0.9%	3.6%	-2.4
CSc1ncccc1C(=O)OCc1cccc([N+](=O)[O-])c1	-9%	?	-11%	-2.5	1.0%	-0.5%	-5.0
Cc1ccc(S(=O)(=O)Cc2ccc(C(=O)N3CCCCC3C)cc2)cc1 (stereo unspecified)	-4%	14%	6%	0.1	-1.1%	2.4%	-1.4
Cc1cc2c(cc1C)NC(c1cccnc1)C1=C(CC(C)(C)CC1=O)N2 (stereo unspecified)	-6%	-20%	-3%	1.1	-0.5%	-2.5%	0.3
Cc1ccc(CNS(=O)(=O)c2c(C)[nH]c(C)c2C(=O)N2CCCC2)cc1	10%	-3%	10%	-0.9	2.4%	-0.2%	0.7
Fc1ccc(N2CCN(C(=S)NCC3CCCO3)CC2)cc1 (stereo unspecified)	/	-6%[15.4 µM]	7%	-2.1	1.1%	/	-7.2
CN(C)CCN(CC1CCCN(Cc2ccccc2F)C1)C(=O)c1ccc(Cl)cc1 (stereo unspecified)	14%	-49%[inhibitor]	5%	0.5	1.2%	/	2.0
Cc1ccc2oc(C(=O)N3CCC(C(N)=O)(N4CCCCC4)CC3)c(C)c2c1	7%	-22%	15%	-1.9	-0.3%	3.1%	3.1
CN(c1ccccc1)S(=O)(=O)c1ccc(NC(=O)c2ccc(-c3ccccc3)cc2)cc1	7%	25%	18%	0.7	?	25µM*	2.1
Cc1ccc(/C=C2\C(=O)NC(=O)N2C)o1	-9%	-26%	40µM*	?	-0.4%	-1.2%	-0.9
Cc1ccccc1Nc1nc2ccccc2s1	-7%	?	7%	-3.4	12%	-0.2%	-0.8
NCC(=O)NCC(=O)NC[C@H]1O[C@@H](n2ccc(=O)[nH]c2=O)[C@H](O)[C@@H]1O	4%	/	/	/	-0.7%	-3.6%	-0.8
O=C(CSc1nc(NS(=O)(=O)c2ccccc2)cc(=O)[nH]1)Nc1ccccc1C(F)(F)F	1%	-25%	6%	-0.2	-1.7%	/	-2.6
CCOc1ccc(N2C(=O)CC(N3CCN(c4ccc(C(=O)c5ccncc5)cc4)CC3)C2=O)cc1 (stereo unspecified)	9%	-34%[inhibitor]	/	/	-1.2%	?	3.2
O=C(CCCn1nnc(-c2cccnc2)n1)c1ccc(F)cc1	-20%	-30%	15%	0.5	5.0%[38.3 µM]	-3.3%	-0.1
O=C(c1cccc(Cl)c1)N1CCCC(c2ccc(Cl)cc2)=N1	0%	0%	-26%	1.8	/	-1.7%	-2.3
Cc1ccc(S(=O)(=O)N(Cc2ccc(F)cc2)Cc2ccco2)cc1	-17%	0%	10%	3.3	2.2%	-2.5%	2.9
COc1cccc(/C=C(\C(=O)O)c2ccccc2)c1	-8%	1%[15.4 µM]	12%	-1.8	-0.1%	/	0.5
CN(C)CC(C)(C)CNS(=O)(=O)c1ccc(OC(F)(F)F)cc1	12%	17%[15.4 µM]	5%	-3.4	-0.4%	-0.5%	-0.2
Cc1cc(=O)n2[nH]nnc2n1	13%	5%	12%	1.5	4.3%	3.7%	-1.9
CCCSc1nnc(NC(=O)CSc2nc3[nH]c(=O)cc(O)c3s2)s1	5%	19%	/	/	1.0%	-0.6%	2.2
Cc1ccccc1C(=O)O/N=C(\N)c1cccc([N+](=O)[O-])c1	-2%	3%	14%	2.4	-1.1%[38.3 µM]	0.0%	11
COc1ccc(C(=O)O/N=C(/c2ccccc2)c2ccncc2)cc1OC	-24%	17%[15.4 µM]	5%	-4.1	2.5%	/	6.7
O=C1CCC/C=C\C[C@H](CC(=O)N(CCO)Cc2ccccc2)C(=O)N2CCC[C@@H]2CO1	2%	/	/	/	0.8%	-0.8%	-1.7
CCCCn1nc2cc(C(=O)NCC34CC5CC(CC(C5)C3)C4)ccc2c1OC	-13%	/	7%	5.4	5.5%	3.7%	2.9
CCC(=O)c1c[nH]c(C(=O)NCc2cccnc2)c1	-14%	15%[15.4 µM]	13%	0.0	2.6%	/	-3.1
Cc1ccc(S(=O)(=O)N(C)C)cc1NC(=O)COC(=O)c1c(-c2ccccc2)noc1C	-3%	9%	/	/	2.0%	-3.0%	-0.3
CCOC(=O)Cc1csc(NC(=O)c2cc3ccccc3o2)n1	-10%	6%	-6%	-1.0	1.0%	/	-1.9
CC(=O)Nc1ccc(S(=O)(=O)NC(CC(=O)O)c2ccc(C)cc2)cc1 (stereo unspecified)	10%	1%	19%	4.6	-0.1%	-0.6%	-3.7
O=C(O)CC1Sc2ccccc2NC1=O (stereo unspecified)	6%[15.4 µM]	-11%	-13%	2.8	1.5%	0.1%	-6.0
CC(C)(CO)CNC(=O)CCc1nnc(CCCc2ccccc2)o1	11%	9%	5%	-0.1	0.8%	-0.5%	-2.8
COC(=O)C(C)n1cnc2c(nnn2-c2cccc(Cl)c2)c1=O (stereo unspecified)	-6%	20%	13%	-1.9	-1.7%	-2.8%	-3.6
Fc1ccc(NC(=S)N/N=C/c2cccc(Br)c2)c(F)c1	7%	-10%	-1%	-0.7	?	-1.8%	-1.9
Cc1cc(C)c2c(CC(=O)NC3CCS(=O)(=O)C3)coc2c1 (stereo unspecified)	-1%	-13%	10%	-0.7	2.6%	0.6%	-4.6
Cc1cc(Br)c(NC(=O)COC(=O)C2CC2C)c(Br)c1 (stereo unspecified)	4%	-12%	6%	3.1	0.9%	-0.9%	0.2
Cc1ccc(CC2S/C(=N/N=C/c3ccco3)NC2=O)cc1 (stereo unspecified)	9%	-10%[15.4 µM]	-9%	-0.8	11%	/	-3.0
CC(C)N(C(=O)Cn1c(SCC(=O)Nc2nccs2)nc2ccccc21)C(C)C	-1%	-18%	3%	0.6	9.9%	3.0%	0.5
O=C(NNc1c2ccccc2nc2ccccc12)c1ccc(Cl)cc1	-1%	-15%	-17%	-6.2	16%	/	-2.4
CN1CCN(c2nc(-c3ccccc3Cl)nc3ccccc23)CC1	-12%	-2%	2%	2.9	-0.3%	-0.2%	-8.6
O=C(NCCCN1CCOCC1)c1cn(-c2ccccc2)nc1-c1ccc(Br)cc1	-2%	4%	/	/	2.8%	-3.8%	-2.4
CN(CC(=O)OCC(=O)NC1CCCC1)S(=O)(=O)c1ccc(Cl)cc1	-29%	-26%	/	/	2.0%	-3.0%	-2.0
CCOC(=O)C1CCCN(Cc2ccc3c(c2)OCO3)C1 (stereo unspecified)	1%	-1%	-19%	-2.2	0.6%[38.3 µM]	-2.8%	0.2
CCSc1nnc(NC(=O)CSc2nnc(Cc3cccn3C)n2-c2ccc(C)cc2)s1	-25%	-10%	26%	6.1	?	4.6%	-0.1
Cn1nc(C(F)(F)F)cc1C(=O)Nc1ccc(Cl)cc1	-13%	0%[15.4 µM]	9%	-1.9	?	/	1.7
Cc1cccc2cc(CN(Cc3ccc(F)cc3)C(=O)N3CCOCC3)c3nnnn3c12	-22%	-13%	11%	-1.0	-1.9%	4.7%	-1.6
C=CCn1c(O)c(C(CC)=NCCN2CCOCC2)c(=O)[nH]c1=O	3%	-2%	5%	-0.9	-1.4%	-0.3%	-6.6
COc1cc2c(cc1OC)[C@@H](NC(=O)c1ccc(C(F)(F)F)cc1)[C@H](OCc1ccccc1)C2	10%	/	/	/	6.6%	2.0%	-1.1
C=CCn1c(C)cc(C(=O)CN2C(=O)NC3(CCCc4ccccc43)C2=O)c1C (stereo unspecified)	-11%	0%	-6%	-2.5	-2.3%	2.9%	-3.1
CCN(CC)S(=O)(=O)c1ccc(-n2c(=O)c(C(C)C)c(C)n2C)cc1	6%	-7%[15.4 µM]	5%	-3.8	0.8%	/	-0.1

Screens: PubChem, National Center for Advancing Translational Sciences (NCATS)
